High-throughput results deposited in PubChem by National Center for Advancing Translational Sciences (NCATS).
NPR1 antag – Natriuretic polypeptide receptor (hNpr1) antagonism - Primary qHTS | Atrial natriuretic peptide receptor 1 (Homo sapiens), P16066 | HEK293 hNpr1 GloSensor cGMP, ANP-stimulated luminescence | Potency, µM (doses to about 46.3 µM), without a hit: top-dose activity change, negative = inhibition, actives largely listed as inhibitors | hit rate 1.6% among 76,000 | AID 1347048, 2019; active = well fitted inhibition curve with a large enough effect; inconclusive = small, poorly fitted or top-dose-only effect; inactive = no such curve, though single readings can be large or run the other way;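 further: nearly all actives have a fitted effect of over 60% in size; nearly all hits also lower the signal before the agonist is added; a reference antagonist and vehicle were the controls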
Target sequence (P16066 whole entry, looked up): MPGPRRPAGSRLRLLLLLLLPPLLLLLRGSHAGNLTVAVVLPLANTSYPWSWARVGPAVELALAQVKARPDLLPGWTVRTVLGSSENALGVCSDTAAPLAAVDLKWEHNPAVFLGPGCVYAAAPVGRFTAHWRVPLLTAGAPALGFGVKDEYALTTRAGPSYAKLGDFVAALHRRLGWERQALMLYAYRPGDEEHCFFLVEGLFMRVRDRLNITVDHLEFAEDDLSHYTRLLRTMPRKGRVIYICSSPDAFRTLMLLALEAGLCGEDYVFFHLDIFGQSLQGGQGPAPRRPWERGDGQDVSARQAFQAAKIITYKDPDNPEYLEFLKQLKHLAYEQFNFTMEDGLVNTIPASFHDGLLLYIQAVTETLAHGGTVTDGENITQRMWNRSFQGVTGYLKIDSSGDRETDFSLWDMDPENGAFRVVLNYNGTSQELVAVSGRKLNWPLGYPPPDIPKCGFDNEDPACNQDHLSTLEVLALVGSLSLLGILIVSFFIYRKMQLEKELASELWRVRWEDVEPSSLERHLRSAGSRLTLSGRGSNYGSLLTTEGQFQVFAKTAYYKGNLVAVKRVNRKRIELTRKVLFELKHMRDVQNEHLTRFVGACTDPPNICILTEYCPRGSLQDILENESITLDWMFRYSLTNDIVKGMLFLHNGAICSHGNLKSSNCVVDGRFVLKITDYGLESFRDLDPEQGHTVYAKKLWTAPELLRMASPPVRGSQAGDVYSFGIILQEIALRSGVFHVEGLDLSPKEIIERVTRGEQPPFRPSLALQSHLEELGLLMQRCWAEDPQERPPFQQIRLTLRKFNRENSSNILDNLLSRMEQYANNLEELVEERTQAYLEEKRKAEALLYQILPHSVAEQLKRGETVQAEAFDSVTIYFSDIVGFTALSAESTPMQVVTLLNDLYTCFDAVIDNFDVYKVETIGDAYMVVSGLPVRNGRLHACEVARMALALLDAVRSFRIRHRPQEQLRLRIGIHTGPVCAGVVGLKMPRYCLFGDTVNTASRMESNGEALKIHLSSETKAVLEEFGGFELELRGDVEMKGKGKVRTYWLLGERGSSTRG
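HEK293 cells stably expressing human Npr1 and cGMP GloSensor pGS-40F, loaded 2 h with 2% GloSensor reagent, given compound 30 min at room temperature. Luminescence read before and 20 min after 0.1 nM hNppA.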
* = called active by the depositor; ? = inconclusive; & = joins results of further samples; [ ] = another dose, or the depositor's remark. On the % scale 0 is the no-effect control and ±100 the full control effect; potency means the concentration at half of the fitted maximal effect.

NPR1 antag	smiles
4%	CC(C)N1C(=O)C2(CCCCC2)C1C(=O)NCCCN1CCCc2ccccc21 (stereo unspecified)
8%[70.6 µM]	COc1cccc(C(=O)N2CCCN(c3nc4ncccc4o3)CC2)c1
7%	CC(C)(C)C(=O)N1CC[C@@H]2[C@H]1C(=O)N(c1ccc(F)c(Cl)c1)C(=O)N2Cc1ccccc1
19%[70.6 µM]	O=C1NC2(CCCN(C(=O)C3CCCC3)C2)Oc2ccccc21 (stereo unspecified)
2%	CSc1ccc(CNC(=O)CCc2conc2-c2cccc(C)c2)cc1
2%	CCC(=O)N1CCc2c(C(=O)Nc3ccc(OC)c(OC)c3)cccc21
0%	Cn1cnc(S(=O)(=O)N2CCCC(c3nc(-c4cnccn4)no3)CCNC(=O)CC2)c1 (stereo unspecified)
4%	CCC(=O)N1CCC2(CC1)c1[nH]c3ccccc3c1CCN2C
0%[70.6 µM]	O=[S+]1([O-])NC2(CCN(CC3CC3)C2)CNc2ccccc21 (stereo unspecified)
4%	Cc1csc(NC(=O)C2CC(=O)N(c3n[nH]c4cccc(F)c34)C2)n1 (stereo unspecified)
2%	CCn1ncc(N2CCCC(CC(=O)N3CCN(Cc4ccccc4)CC3)C2)cc1=O (stereo unspecified)
0%	CCC(=O)N1CCC(Oc2ncccc2C(=O)N(C)C)CC1

Random excerpt: 3 entries already listed, in no set order.
NPR1 antag	smiles
4%	CC(C)N1C(=O)C2(CCCCC2)C1C(=O)NCCCN1CCCc2ccccc21 (stereo unspecified)
19%[70.6 µM]	O=C1NC2(CCCN(C(=O)C3CCCC3)C2)Oc2ccccc21 (stereo unspecified)
8%[70.6 µM]	COc1cccc(C(=O)N2CCCN(c3nc4ncccc4o3)CC2)c1

(next part)
NPR1 antag	smiles
-3%	O=C(Cc1ccccc1Cl)N1CCN(C(=O)c2nnn3c2COC(c2ccccc2)C3)CC1 (stereo unspecified)
-5%	O=C(c1cn2ccccc2n1)N1C[C@@H](CO)[C@H](c2ccccn2)C1
4%	Cn1cccc1C(=O)N1CCC(N2C[C@H](O)C[C@H]2C(=O)NCc2cccnc2)CC1
0%[70.6 µM]	O=C(NCC(F)F)C1CN(c2ccccc2)C(=O)N1 (stereo unspecified)
-1%	COCCN1CCC(CN(C)C(=O)C(N)c2c(C)n[nH]c2C)CC1 (stereo unspecified)
-1%	CCS(=O)(=O)Nc1ccc(C)n(CC(=O)N2CCN(c3ccccc3)CC2)c1=O
-13%[70.6 µM]	O=c1c2nc(-c3ccoc3)ccc2ncn1-c1ccc(F)cc1F
1%[70.6 µM]	COc1ncccc1-c1cc(C(=O)N2CCC(OC)CC2)c2c(c1)ncn2C
4%	COc1cccc(S(=O)(=O)N2CC(Oc3ccccc3-c3noc(C)n3)C2)c1
-3%	CCC1(CC)CN(C(=O)C2CCC(=O)N(Cc3ccccn3)C2)CCO1 (stereo unspecified)
19%	CCCN1CCC2(CCN(C(=O)c3ccccc3F)CC2)Oc2ccccc21
1%	Cc1nccn1CCC(NC(=O)c1cn(CCN)nn1)c1ccccc1 (stereo unspecified)

Continued, overlapping the part above by 3 compounds.
NPR1 antag	smiles
-3%	CCC1(CC)CN(C(=O)C2CCC(=O)N(Cc3ccccn3)C2)CCO1 (stereo unspecified)
19%	CCCN1CCC2(CCN(C(=O)c3ccccc3F)CC2)Oc2ccccc21
1%	Cc1nccn1CCC(NC(=O)c1cn(CCN)nn1)c1ccccc1 (stereo unspecified)
-1%	Cc1cnc(CC2CCN(C(=O)C3CCCC3)C2)n1C1CC1 (stereo unspecified)
-12%	CC(C)Cn1ccc2c(NC(=O)CC[C@H]3NC(=O)c4ccccc4NC3=O)cccc21
3%[70.6 µM]	O=C(c1ccn2nccc2c1)N1CCOCC1
-17%[70.6 µM]	COc1ccc(-c2[nH]nc3ncc(C(=O)N4CCC(c5ccccc5)CC4)nc23)c(C)c1
3%[70.6 µM]	CCN(CC)C(=O)C[C@@H]1CCNC[C@@H]1Cc1cc(CC2CCCCC2)on1
-2%	CCOC(=O)CCCOc1cccn2c(=O)c(-c3cc(C)n(-c4cccc(C)c4)n3)c(C)nc12
-19%[70.6 µM]	O=C(NCc1ccccc1)[C@@H]1C[C@@H](c2ccc(F)cc2)N([S+](=O)([O-])c2cccnc2)C1
-3%	COc1cccc(NC(=O)NC[C@H]2O[C@H](Cc3cc(-c4ccc(F)cc4)on3)CC[C@@H]2O)c1
9%	CC(=O)N1CCCC(C(=O)NCc2nc(Cc3cccs3)no2)C1 (stereo unspecified)
24%	COCCCn1c(C(C)NC(=O)OCc2ccccc2)nc2cccnc21 (stereo unspecified)
1%[70.6 µM]	O=C1COc2ccc(-c3ccncc3)nc2CN1Cc1ccccc1F
-2%	CCC(=O)N1c2ccccc2CC1c1nc(C(C)C)no1 (stereo unspecified)
6%	CN(C)C[C@@H]1CN(c2ccncn2)C[C@H]1NC(=O)c1cccc2[nH]ccc12
5%[70.6 µM]	CC[C@H]1CN(C(=O)C(C)(C)C)CC[C@H]1CC(=O)N(CC)C(=O)NCCCN(C)C
0%	CCOCCn1c(=O)[nH]c2cc(C(=O)N(C)Cc3cnn(C)c3)ccc21
10%	COc1ccc(CN2CCc3nc(C(C)C)nc(-c4ccc(O)cc4)c3CC2)cc1
?	COc1ccc(S(=O)(=O)N2CCc3c(C(=O)Nc4cccc(C)c4)cccc32)cc1
-1%[70.6 µM]	COCC(=O)N[C@H]1C[C@@H]2C(=O)N[C@H]3CCN(C(=O)c4cccn4C)[C@@H]3C(=O)N2C1
2%[70.6 µM]	O=C(NC[C@H]1Cn2ccnc2CO1)c1cc(F)cc(F)c1
0%	O=C(O)CNC(=O)Cn1nc2c(cc1=O)CCCCC2
4%	O=S(=O)(c1cccnc1)N1CCCCC1CCN1CCOCC1 (stereo unspecified)
1%	COc1ccc(-c2[nH]ncc2CNC(=O)C(c2ccccc2F)N(C)C)cc1 (stereo unspecified)
2%	COc1ccc(C(=O)N2CCc3ccc(C(=O)NCc4cccc(OC)c4)cc32)cc1
-10%	NC(=O)[C@@H]1CN(C(=O)CC2=CCCCC2)C[C@H]1COc1ccccc1
-3%	COc1ccccc1C(=O)Nc1ccnn1C1CCN(c2nccc(N)n2)CC1
7%	CCN1CCN(CCNC(=O)c2nnn3cc(-c4ccccc4)[nH]c(=O)c23)CC1
18%	O=C1CC2(CCN(C(=O)c3ccccc3F)CC2)Oc2ccccc21
7%	CCOC(=O)C1=CN(CC(=O)Nc2ccc(C(C)=O)cc2)S(=O)(=O)N=C1C
-15%	COc1ccc(C2Cn3nnc(C(=O)Nc4cc(C)ccc4F)c3CO2)cc1 (stereo unspecified)
-1%	Brc1ccc(-c2ccnc3nc(C4CCCO4)nn23)s1 (stereo unspecified)
-12%	O=C(c1cnn(Cc2ccccc2)c1)N1CCn2nc(Cc3ccccc3)cc2C1
2%	O=C(c1ccsc1)N1CC2CC(C1)[C@H]1CCCC(=O)N1C2 (stereo partly specified)
-12%	O=C(N[C@@H]1CN(c2ncccn2)C[C@H]1CO)c1c(F)cccc1F
4%	Cc1ccc(-c2nnc(C3CN(C(=O)c4n[nH]c5ccccc45)CC34CCOCC4)o2)cc1 (stereo unspecified)
1%	CCc1nc2c(NC(=O)NCCc3ccccc3)cccn2n1
2%	CCN1C(=O)C2CC3(CCN(C(=O)NCCc4ccccc4)CC3)CN2C1=O (stereo unspecified)
-6%	COc1ccc(CCN(Cc2ccncc2)C(=O)CC2COCCN2)cc1 (stereo unspecified)
1%	CCn1c(C)cc(C(=O)N2CC[C@H](N3CCN(C)CC3)[C@H](CCCO)C2)c1C
-2%	Cc1cccc(S(=O)(=O)Nc2cccn3nc(C4CCC4)nc23)c1
2%	CC(=O)N1CC(CO)C2(CCN(Cc3cccc(C#N)c3)CC2)C1 (stereo unspecified)
-2%	Cc1cc(C)n(CCC(=O)N2CCC(c3noc(C4CC4)n3)C2)n1 (stereo unspecified)
-25%	COc1ccc(C(=O)N2CCc3ccc(C(=O)Nc4ccc(OC)cc4C)cc32)cc1
3%	C[S+](=O)([O-])c1ccc(-c2nc(C(=O)NC3CC3)n3ccccc23)cc1
1%	O=C(NCc1cccnc1)[C@@H]1C[C@@H](O)CN1C1CCN(C(=O)C2(c3ccccc3)CC2)CC1
-1%[70.6 µM]	COCCNC(=O)[C@@H]1CCC[C@@H](NC(=O)c2ccc(Cl)cc2)CN(C)C(=O)C1
0%	COc1cccc(NC(=O)c2ccc3c(c2)N(C)C2CCCCN2C3=O)c1 (stereo unspecified)
2%	COC[C@@H]1CN(C(=O)c2ncoc2-c2cccc(C)c2)C[C@H]1C(N)=O
-24%	COc1ccc(C(=O)NC2CCN(c3cc(-c4ccccc4)[nH]n3)CC2)cc1OC
0%	CC(=O)N1CCC(Cn2cc(Cn3c(C)nc4ccccc43)nn2)CC1
-2%	N#Cc1ccccc1CN1CCNc2nc(CNCc3cnccn3)n(Cc3ccccc3)c2C1=O
-4%[70.6 µM]	CN(C)CCNC(=O)c1nc2nc(-c3ccccc3)c(-c3ccc(Cl)cc3)cc2n1C
-6%	CCc1noc(-c2cccn3c(CNC(=O)c4cccc(C)c4)nnc23)n1
-22%	CCOC(=O)C1CCCN(C(=O)Cc2ccc(N(Cc3ccc(C)cc3)C(=O)c3ccco3)cc2)C1 (stereo unspecified)
-9%	Cc1c(CN2C[C@@H](CO)[C@H](NC(=O)c3ccccc3)C2)cnn1C
4%	O=C(Cc1c(F)cccc1Cl)NCC(=O)N1CCN(c2ccccn2)CC1
4%	CCCN1C(=O)CCc2cc(NC(=O)NCCCOCC)ccc21
-1%	O=C([C@@H]1C[C@H](F)CN1C(=O)c1cccc(C(F)(F)F)c1)N1CCOCC1
-5%	CCn1cc(Cl)c(C(=O)N2CCc3c(nc4cc(-c5ccccc5)[nH]n4c3=O)C2)n1
-1%	CCN(Cc1nccn1C)C(=O)c1cc(-c2cnc(N)nc2)nc2c(C)cccc12
4%	O=C(c1cccc2[nH]ccc12)N1CCC(c2noc(C3CC3)n2)C1 (stereo unspecified)

Structural class: those above containing a tert-butyl group.
NPR1 antag	smiles
7%	CC(C)(C)C(=O)N1CC[C@@H]2[C@H]1C(=O)N(c1ccc(F)c(Cl)c1)C(=O)N2Cc1ccccc1
5%[70.6 µM]	CC[C@H]1CN(C(=O)C(C)(C)C)CC[C@H]1CC(=O)N(CC)C(=O)NCCCN(C)C

Remaining list, next part
NPR1 antag	smiles
7.1µM*	COc1ccc(-c2noc(CC3CCN(C(=O)c4ccc(OC)nc4)CC3)n2)cc1
-6%	CCN(CC)C(=O)N1C[C@@H](Oc2cccnc2)C[C@@H]1C(=O)NC
-4%	CCc1cccc(NC(=O)N2C[C@@H](F)C[C@H]2C(=O)N2CCc3ccccc3C2)c1
5.6µM*	O=C(c1cc(F)ccc1F)N1CCC(Cc2nc(-c3ccccc3)no2)CC1
4%	Cc1noc(-c2ccn3c(CNC(=O)c4cccc(F)c4)nnc3c2)n1
-1%	O=C1[C@@H]2C[C@@H](CN2C(=O)c2ccc(C(F)(F)F)cc2)Oc2ccccc2N1Cc1ccccn1
0%	Cc1ccc(C(=O)N2CCC3(CC2)C(=O)NCN3Cc2ccc(Cl)cc2)cc1
0%&-4%[70.6 µM]	COc1ccc(CN2CCC(N3Cc4cnc(C)n4C3=O)CC2)cc1
-2%	COCCc1noc(-c2ccc(N(C)Cc3ccnc(C)c3)nc2)n1
2%	CC(C)C(=O)N1CCCC(c2nc(-c3ccccc3)no2)CCNC(=O)CC1 (stereo unspecified)
0%	O=C(NC1CC(=O)N(Cc2cccc(F)c2)C1)c1ccccc1-n1cccn1 (stereo unspecified)
?	COc1cccc(CC(=O)N2CCC(c3nc(CCOc4ccc(F)cc4)no3)C2)c1 (stereo unspecified)

Three entries from above, arranged by their value in NPR1 antag, descending:
NPR1 antag	smiles
4%	Cc1noc(-c2ccn3c(CNC(=O)c4cccc(F)c4)nnc3c2)n1
2%	CC(C)C(=O)N1CCCC(c2nc(-c3ccccc3)no2)CCNC(=O)CC1 (stereo unspecified)
0%	O=C(NC1CC(=O)N(Cc2cccc(F)c2)C1)c1ccccc1-n1cccn1 (stereo unspecified)

(more compounds)
NPR1 antag	smiles
1%	COC1C(=O)N(CC2CC2)C12CCN(C(=O)c1cnccn1)CC2 (stereo unspecified)
7%[70.6 µM]	O=C1NC2(CN(Cc3ccccc3)C2)Oc2ccccc21
-17%	COc1ccc(C(CC(=O)NCCc2ccc(OC)c(OC)c2)c2c[nH]c3ccccc23)c(OC)c1 (stereo unspecified)
-3%	O=S(=O)(CCNc1cc(C2CC(O)C2)ncn1)c1ccc(F)cc1 (stereo unspecified)
-18%	COCCOCc1nc(C2CCN(C(=O)c3n[nH]c4c3CCCCCC4)CC2)no1
-16%	CC1CCN(C(=O)c2ccccc2OCC2CCCN(Cc3ccncc3F)C2)CC1 (stereo unspecified)
-5%	Cc1ccccc1C(=O)N1CCC(CCC(=O)NCCC(C)C)CC1
6%	O=C(O)C1(Cc2ccccc2F)CCCN(c2ncccn2)C1 (stereo unspecified)
-6%	OC1CCOC2(CCN(Cc3ccc4c(c3)CCO4)CC2)C1 (stereo unspecified)
-1%	Cc1cc(NC(=O)Cn2ccn3nc4c(c3c2=O)CCCC4)no1
4%[70.6 µM]	COC(=O)c1cn([C@H]2CO[C@H]3[C@@H]2OC[C@H]3OC(=O)Nc2cccc(C#N)c2)nn1
17%	O=C(C1CC1)N1CCC(c2nc(C3CCOCC3)no2)C1 (stereo unspecified)

Not all compounds are listed, so the mix of outcomes need not match the whole.
